E coli growth: E. coli growth inhibition. Escherichia coli growth, OD600, 23 h; hits give low values. OD600 absorbance (no concentration beside the values). hit rate 0.21% among 330,000. AID 1053175;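 active means OD600 absorbance below the run mean of sample wells minus 3.6 SD, in any replicate, cut at about 0.56 in these data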;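 further: stock transfer was 300 nL into about 60 µL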
Numbers without * were called inactive; & = joins results of further samples. This is a subset (hit frequency here may not be typical).

Molecule	E coli growth
COC(=O)[C@@]1(Cc2ccc(F)cc2)C2c3cc(C(=O)N(C)C)n(Cc4c(CO)[nH]cc(C)c4=O)c3CC2CN1C(=O)c1ccccc1 (some centres not stated)	0.66
CCOC(=O)C1C2COc3ccc(Cl)cc3C2N2C(=O)c3cc(C)ccc3NC(=O)[C@@]12C (some centres not stated)	0.708
O=C(NCCn1c(C(F)(F)F)nc2ccccc21)C1CCCN1c1nc(CN2CCCCC2)cs1 (configuration not stated)	0.694
O=C(NC(Cc1ccccc1)C(=O)OCc1ccccc1)c1nc[nH]c1C(=O)N1CCNCC1 (configuration not stated)	0.66
NC(C(=O)NC1C(=O)N2C(C(=O)O)=C(Cl)CSC12)c1ccccc1 (configuration not stated)	0.06*
O=C(CC1CC=CCC(Cc2ccc(F)cc2)C(=O)OCCNC1=O)NCCO (configuration not stated)	0.723&0.68&0.702
CC(C)CCOC(=O)C1C2C=C[C@]3(CN(Cc4cccs4)C(=O)C13)O2 (some centres not stated)	0.693
CCC1CC=CC2C1C(=O)N(Cc1ccccc1)C2c1cc(C)ccc1F (configuration not stated)	0.666
Cc1ccc(C(O)=C2C(=O)C(=O)N(c3cc(C)on3)C2c2cccc(Br)c2)cc1 (configuration not stated)	0.69
O=C(O)C=CC(=O)NCc1cn(-c2ccccc2)nc1-c1cccc(Br)c1	0.669
CCCCCCc1ccc(N2CC(Cc3ccccc3)C(CC(=O)NCc3ccc(OC)cc3)C2=O)cc1 (configuration not stated)	0.707
CC(C(=O)Nc1ccc2ccccc2c1)C1C[C@]1(C)C(NC(=O)c1cccnc1)c1ccccc1 (some centres not stated)	0.62
O=C(CCCNC(=O)C(=Cc1ccc(F)cc1)NC(=O)c1ccccc1)OCc1ccccc1	0.717
COc1ccccc1C1=CC(=O)CC(c2ccc3c(c2)OCO3)C1 (configuration not stated)	0.626
CCOC(=O)c1ccc([N+]([O-])=Cc2ccccc2)cc1	0.69

Pulled by compound from the list above, three records:
Molecule	E coli growth
CC(C(=O)Nc1ccc2ccccc2c1)C1C[C@]1(C)C(NC(=O)c1cccnc1)c1ccccc1 (some centres not stated)	0.62
CCOC(=O)c1ccc([N+]([O-])=Cc2ccccc2)cc1	0.69
Cc1ccc(C(O)=C2C(=O)C(=O)N(c3cc(C)on3)C2c2cccc(Br)c2)cc1 (configuration not stated)	0.69

Remaining list, next part.
Molecule	E coli growth
COc1ccccc1C1=CC(=O)CC(c2ccc(Cl)cc2)C1 (configuration not stated)	0.705
COc1ccc(C2=CC(=O)CC(c3ccc4c(c3)OCO4)C2)cn1 (configuration not stated)	0.71
O=C(NC1CC1)C1=CC(C2CCCCC2)CC(OCc2ccc(CO)cc2)O1 (configuration not stated)	0.736&0.676
NC(=O)C1CCCCNc2c(F)cc([N+](=O)[O-])cc2C(=O)NC(CC(=O)O)C(=O)NCC(=O)N1 (configuration not stated)	0.675
CC1CN(C(C)CO)C(=O)c2cccc(NS(=O)(=O)c3ccccc3)c2OC1CN(C)C(=O)Nc1ccc(C(F)(F)F)cc1 (configuration not stated)	0.673
COc1ccc(C2C=CCN(S(=O)(=O)c3ccc(C)cc3)C(Cc3ccccc3)C(=O)N2Cc2ccc(F)cc2)cc1 (configuration not stated)	0.727
COc1ccc(CN2C(CC(C)=O)c3cc(C(F)(F)F)ccc3S2(=O)=O)cc1 (configuration not stated)	0.685
CC1CN(C(C)CO)C(=O)c2cc(NC(=O)C3CCCCC3)ccc2OC1CN(C)S(=O)(=O)c1ccccc1 (configuration not stated)	0.677
C[C@@]12C(=O)N(CC3CCCO3)CC(=O)N1C1c3ccccc3OCC1C2c1ccccc1 (some centres not stated)	0.694
CCCCCC(=O)N1CC2(CC(c3cccc(NC(=O)CC(c4ccccc4)c4ccccc4)c3)=NO2)CC1C(N)=O (configuration not stated)	0.727
C=C1CCN(C(Cc2ccccc2)C(=O)O)S(=O)(=O)c2ccccc21 (configuration not stated)	0.689
Cc1ccc2c(c1)C1C(CO2)C(c2ccccc2)[C@]2(C)C(=O)NCC(=O)N12 (some centres not stated)	0.674
CN(C)CCN1C(=O)C(=O)C(=C(O)c2ccc(OCc3ccccc3)cc2)C1c1ccncc1 (configuration not stated)	0.695
COc1ccc(Br)cc1C=NNC(=O)c1ccc(COc2ccc3c(c2)CCC3)o1	0.707
CC(C)CC(NC(=O)c1nc[nH]c1C(=O)NC(CC(C)C)C(=O)OCc1ccccc1)C(=O)OCc1ccccc1 (configuration not stated)	0.701
CC(C)c1ccc2[nH]c3c(c2c1)C1CCN2C(=O)CCCC(C3)C12 (configuration not stated)	0.661
C=CCC(CC(=O)NC(CO)Cc1ccccc1)C(=O)NCC(OC(=O)C(CC=C)Cc1ccc(F)cc1)c1ccccc1 (configuration not stated)	0.735&0.694&0.718
CCOC(=O)c1c2ccccc2[n+]([O-])n1C(C)C(N)=O (configuration not stated)	0.703
O=C(CC1CC=CCCC(=O)OCC(Cc2ccccc2)NC1=O)NC(CO)Cc1ccccc1 (configuration not stated)	0.68
CC(C)NC(=O)N(C)CC1Oc2c(NS(=O)(=O)c3cccs3)cccc2C(=O)N(C(C)CO)CC1C (configuration not stated)	0.607
Cc1ccc(S(=O)(=O)C=Cc2ccccc2)cc1	0.662
O=C(O)C1=CC(c2ccc3c(c2)OCO3)CC(OCCCCO)O1 (configuration not stated)	0.642&0.683
CC(O)C1NC(=O)C(CCCCN)NC(=O)c2cc([N+](=O)[O-])cc(F)c2NCCCCC(C(N)=O)NC1=O (configuration not stated)	0.684
CN1CCc2cc3c(c4c2C1C(O)c1ccccc1-4)OCO3 (configuration not stated)	0.595
COC(=O)C(NC(=O)N1CCN(c2cccc(C(F)(F)F)c2)CC1)C(C)C (configuration not stated)	0.704
C#CCNC(=O)C1=CC(c2cn(C(C)=O)c3ccccc23)C(CCCO)C(OCC)O1 (configuration not stated)	0.675
C[C@@]12C(=O)N(c3cccc(Cl)c3)C(=O)N1C(c1ccc(Cl)cc1)C1C(=O)N(C3CCCCC3)C(=O)C12 (some centres not stated)	0.682
O=C(NC=NOCc1ccc(Cl)cc1Cl)NOCc1c(Cl)cccc1Cl	0.751
COc1cc2c(cc1O)C1Cc3cc(O)c(OC)cc3C(C2)N1C (configuration not stated)	0.667
C[C@@]12C(=O)Nc3cc(Cl)ccc3C(=O)N1C1c3cc(Cl)ccc3OCC1C2c1ccccc1 (some centres not stated)	0.696

Next results follow.
SMILES,E coli growth
CCOC1=NN(c2ccccc2)C(=O)C1=CN(C)C,0.728
Cc1cccc(NC(=S)NC(=O)C=Cc2ccccc2)n1,0.729
CN1C(=O)C2C(C=Cc3ccccc3)N3C(=O)CN(Cc4ccccc4)C(=O)[C@@]3(C)C2C1=O (some centres not stated),0.711
C#C[C@]1(OC(C)=O)CCC2C3CCC4=CC(=O)CCC4C3CC[C@@]21C (some centres not stated),0.686
CCc1ccc(C2CC=C(C(=O)O)C(c3ccc(F)cc3)N2S(=O)(=O)c2ccc(C)cc2)cc1 (configuration not stated),0.676
C#CCOCCOCCOCCNc1nc(N2CCN(C(=O)Cn3cc(CCCN=C(N)N)nn3)CC2)nc(N2CCN(C(=O)C(C(C)C)n3cc(CCO)nn3)CC2)n1 (configuration not stated),0.688
CCOC(=O)C1C2COc3ccc(C)cc3C2N2C(=O)c3cc(F)c(F)cc3NC(=O)[C@@]12C (some centres not stated),0.715
CCN1C(=NCc2cc(OC)c(OC)c(OC)c2)NC(c2ccccc2)C(C(=O)OC)=C1C (configuration not stated),0.684
CC1CN(CCc2ccccc2)C(=O)C1CC(=O)NCc1ccccc1 (configuration not stated),0.619
CCOC1OC(C(=O)N2CCN(Cc3ccc4c(c3)OCO4)CC2)=CC(c2coc3ccccc3c2=O)C1CCCO (configuration not stated),0.677
CC#CCN1c2ccccc2[C@]23CC(C(=O)OC)N(C(C)=O)C2=NC(C(=O)OC)=C(C(=O)OC)C13 (some centres not stated),0.696
C#CCOCCOCCOCCNc1nc(N2CCN(C(=O)Cn3cc(CCO)nn3)CC2)nc(N2CCN(C(=O)C(C(C)O)n3cc(CCCCN)nn3)CC2)n1 (configuration not stated),0.667
COc1cccc(C2CC=C(C(=O)O)C(c3ccccc3F)N2S(=O)(=O)c2ccc(C)cc2)c1 (configuration not stated),0.675
CC1C=C(C(=O)NCc2nc3ccccc3[nH]2)OC(OCc2ccc(CO)cc2)C1 (configuration not stated),0.677&0.694
Cc1cccc(C(=O)ON=C(N)c2ccc(Br)cc2)c1,0.69
COC(=O)C1=C(C)N(Cc2ccccc2)C(=NCCc2cccnc2)NC1c1ccc(Br)cc1 (configuration not stated),0.641
NCCCCC1NC(=O)C(CCC(=O)O)NC(=O)c2cc([N+](=O)[O-])cc(I)c2NCCC(C(N)=O)NC1=O (configuration not stated),0.682
C#CCOCCOCCOCCNc1nc(N2CCN(C(=O)C(CCC(=O)O)n3cc(C(N)C(C)CC)nn3)CC2)nc(N2CCN(C(=O)C(C(C)CC)n3cc(C(N)CO)nn3)CC2)n1 (configuration not stated),0.701
NC1=NC(=O)C(=Cc2cccc(-c3ccc(S(N)(=O)=O)cc3)c2)S1,0.662
O=C(CSc1ccccc1)NC(Cc1ccccc1)C(=O)O (configuration not stated),0.705
CC1CN(C(C)CO)C(=O)c2cccc(NC(=O)c3ccncc3)c2OC1CN(C)C(=O)NC1CCCCC1 (configuration not stated),0.653
OC(CBr)C(O)C(O)C(O)CBr (configuration not stated),0.644
CC1CN(C(C)CO)C(=O)Cc2cc(NC(=O)Nc3ccc(C(F)(F)F)cc3)ccc2OC1CN(C)S(=O)(=O)c1ccc(Cl)cc1 (configuration not stated),0.639
COC(=O)[C@@]1(Cc2ccc(OC)cc2)C2c3cc(C(=O)N4CCCC4)n(CCSCCO)c3CC2CN1C(=O)c1ccccc1 (some centres not stated),0.631
O=C(CCC1CCCCC1)NCCN1C2=NCC(Cc3ccc(O)cc3)N2CC1Cc1ccc(O)cc1 (configuration not stated),0.662
CC1OC(=O)C(C)C1CC(O)[C@](C)(O)C1CC[C@@]2(O)C3=CC(=O)C4CC(O)C(O)C[C@]4(C)C3CC[C@]12C (some centres not stated),0.666
COC(=O)c1ccc(C(NC(=O)OCc2ccccc2)C(C)=CC(C)C(=O)NCc2ccc(OC)c(OC)c2)cc1 (configuration not stated),0.728
COc1ccc(C=Cc2c(-c3ccccc3OC)sc3ccccc23)cc1OC,0.746
O=C(O)CC1c2cc(F)ccc2S(=O)(=O)N1C1CCCCC1 (configuration not stated),0.649
CC1CN(C(C)CO)C(=O)c2cc(NS(=O)(=O)c3ccccc3)ccc2OC1CN(C)S(=O)(=O)c1cccs1 (configuration not stated),0.693
Cc1c(NC(=O)C=Cc2cn(-c3ccccc3)nc2-c2ccccc2)c(=O)n(-c2ccccc2)n1C,0.706
O=C(NCc1ccccc1)C(NC(=O)c1ccccc1)=C(Sc1ccccn1)c1ccccc1,0.751
CC=C(C)C(=O)Nc1cccc(C2=NOC3(C2)CC(C(N)=O)N(C(=O)C2(C)CC2)C3)c1 (configuration not stated),0.678
FC(F)(F)c1ccc(C2C3CN(CC4CCCCC4)C(c4ccccc4)C34CC2(c2cccnc2)C4)cc1 (configuration not stated),0.689
CC(=O)Nc1ccc(C2C(C)CCC3C(=O)N4C(CCC(C)C4c4ccc(NC(C)=O)cc4)C(=O)N32)cc1 (configuration not stated),0.658
COc1ccc(C2CC(=O)C=C(c3cccc(Cl)c3)C2)cc1 (configuration not stated),0.656
COC(=O)c1ccc(C(NC(=O)OCc2ccccc2)C(F)=CC(C)C(=O)NCc2ccc(OC)c(OC)c2)cc1 (configuration not stated),0.609
CC(NC(=O)c1nc[nH]c1C(=O)NCCCCCN)C(=O)OCc1ccccc1 (configuration not stated),0.68
O=C(NC(=Cc1ccc([N+](=O)[O-])cc1)C(=O)N1CCCCC1)c1ccccc1,0.726
COC(=O)[C@@]12CCCCN1C(c1ccc(-c3ccc(F)cc3)c(OC)c1)C1C(=O)N(C)C(=O)C12 (some centres not stated),0.709&0.713
CC(NC(=O)c1nc[nH]c1C(=O)NCC(=O)OC(C)(C)C)C(=O)OC(C)(C)C (configuration not stated),0.702
O=C1CCN(CCc2ccccc2)CCN1C(CO)c1ccccc1 (configuration not stated),0.657
CC1CN(C(C)CO)C(=O)c2cccc(NS(=O)(=O)c3cccs3)c2OC1CN(C)Cc1ccncc1 (configuration not stated),0.707
CCOC1OC(C(=O)N2CCOCC2)=CC(C(C)(C)C)C1CCCO (configuration not stated),0.697
COC(CC1OC1C(=O)COCc1ccccc1)OC (configuration not stated),0.607&0.693&0.691&0.698
CN(C)CCc1c[nH]c2ccc(CC3COC(=O)N3)cc12 (configuration not stated),0.696
CC=CC=CC(=O)Nc1cccc(C2=NOC3(C2)CC(C(N)=O)N(C(=O)CCCCC)C3)c1 (configuration not stated),0.69
C=CCOC(=O)C1=CC(c2coc3ccccc3c2=O)C(CCCO)C(OCC)O1 (configuration not stated),0.688&0.686
CC(C)NC(=O)N(C)CC1Oc2ccc(NC(=O)Nc3ccc(C(F)(F)F)cc3)cc2C(=O)N(C(C)CO)CC1C (configuration not stated),0.673
CN(C)CCCN1C(=O)C(=O)C(=C(O)c2ccncc2)C1c1ccccc1 (configuration not stated),0.708

Seven entries from above, arranged by length of the SMILES, rising:
SMILES,E coli growth
O=C(O)CC1c2cc(F)ccc2S(=O)(=O)N1C1CCCCC1 (configuration not stated),0.649
COc1cc2c(cc1O)C1Cc3cc(O)c(OC)cc3C(C2)N1C (configuration not stated),0.667
C[C@@]12C(=O)N(CC3CCCO3)CC(=O)N1C1c3ccccc3OCC1C2c1ccccc1 (some centres not stated),0.694
CCCCCCc1ccc(N2CC(Cc3ccccc3)C(CC(=O)NCc3ccc(OC)cc3)C2=O)cc1 (configuration not stated),0.707
CC(C(=O)Nc1ccc2ccccc2c1)C1C[C@]1(C)C(NC(=O)c1cccnc1)c1ccccc1 (some centres not stated),0.62
Cc1c(NC(=O)C=Cc2cn(-c3ccccc3)nc2-c2ccccc2)c(=O)n(-c2ccccc2)n1C,0.706
CC(C)NC(=O)N(C)CC1Oc2ccc(NC(=O)Nc3ccc(C(F)(F)F)cc3)cc2C(=O)N(C(C)CO)CC1C (configuration not stated),0.673

Source: PubChem (ICCB-Longwood Screening Facility, Harvard Medical School)
